Measles inh – inhibitors of measles virus growth in cells, primary screen, measles RdRp inhibitor project, cell-based, single point, HTS. infected Vero cells, GFP fluorescence, 64 h; active compounds read low. z-score (test concentration not listed). hit rate 0.1% among 33,000. AID 745, 2007;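 active means z-score under -3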;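 further: score is relative to mean and SD of the compound wells of a plate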
* hit, by the source's call. Some of the compounds tested; the hit share may differ from the screen's.

SMILES	Measles inh
CCn1cc(C(=O)OCc2ccccc2Cl)c(=O)c2ccc(C)nc21	-0.96
N#Cc1c(-c2ccccc2)cc(-c2cccs2)nc1S(=O)Cc1ccccc1 (stereo not drawn)	0.13
Cc1ccc2oc(-c3cccc(NC(=O)c4ccc(C)c(Cl)c4)c3)nc2c1	1.4
COc1cccc(C(=O)Nc2ccc(NC(=O)c3ccc(C(C)(C)C)cc3)cc2)c1	-0.73
CCCNC(=S)Oc1cccc(C(=O)Nc2cccc3ccccc23)c1	-0.6
CCc1ccc(NC(=O)CSc2nc3ccsc3c(=O)n2Cc2ccccn2)cc1	-1.1
COCCNC(=O)c1ccc(-n2c(SCc3ccncc3)nc3ccccc3c2=O)cc1	0.69
Cc1ccc(NC(=O)c2cccc([N+](=O)[O-])c2)cc1C	0.49
CC(C(=O)N1c2ccccc2C(C)(c2ccccc2)CC1(C)C)N1C(=O)C2CCCCC2C1=O (stereo not drawn)	-2.1
O=[N+]([O-])c1cccc(C2SCCN2S(=O)(=O)c2ccc(F)cc2)c1 (stereo not drawn)	0.39
Fc1ccc(C2=CSC3=NCCN23)cc1	1.5
COc1ccc(N2C(=O)c3ccc(C)cc3C2=O)cc1OC	2.5
Cc1cccc(CS(=O)(=O)Cc2ccc(C(=O)NC3CCCC(C)C3C)o2)c1 (stereo not drawn)	0.55
O=S(=O)(c1ccc(Br)s1)N1CCN(c2cccc(C(F)(F)F)c2)CC1	-0.05
O=C1c2ccccc2C(=O)N1c1ccc(Cl)cc1[N+](=O)[O-]	-0.63
Cc1ccc(-n2c(SCC(=O)OCc3ccccc3)nc3c(c2=O)SCC3)cc1	-1
O=C(Nc1nc2c(s1)CCc1ccccc1-2)c1cc(Cl)ccc1[N+](=O)[O-]	-0.17
Nc1c(C(=O)Nc2nnc(-c3ccccc3)s2)sc2nc3c(cc12)CCCCC3	-0.97
Cc1ccc(S(=O)(=O)n2c(=O)n(S(=O)(=O)c3ccc(C)cc3C)c3ccccc32)c(C)c1	-0.43
Cn1c(SCC(=O)Nc2ccccc2)nc2ccccc21	-0.5
Cc1nnc(Sc2cc(C(=O)NCCCN3CC(C)CC(C)C3)c3ccccc3n2)s1 (stereo not drawn)	1.4
CCSCCOC(=O)C1=C(C)NC2=C(C(=O)C(C(=O)OC)C(C)C2)C1c1cc2c(cc1Br)OCO2 (stereo not drawn)	-0.12
COc1ccccc1C1CC(=O)C2=C(C1)NC(C)=C(C(=O)OCCOC(C)C)C2c1ccsc1 (stereo not drawn)	-0.29
Clc1ccc(-n2cc(-c3ccccc3)c3c(NCc4ccc5c(c4)OCO5)ncnc32)cc1	0.1
Cc1c(NC(=O)CCCCCN2C(=O)c3ccccc3C2=O)c(=O)n(-c2ccccc2)n1C	0.65
Cc1[nH]n(-c2ccccc2)c(=O)c1C(c1ccco1)c1c(C)[nH]n(-c2ccccc2)c1=O	-0.64
CC(C)(C)c1ccc(CNc2ccc([N+](=O)[O-])cn2)cc1	-1.9
CC(=O)N1c2c(cc(Br)cc2S(=O)(=O)NCCN2CCN(c3ccccc3)CC2)CC1C (stereo not drawn)	1.1
CCOc1nc(Nc2ccc(-c3nc4ccccc4o3)cc2)nc(OCC)n1	-0.3
Cc1ccc2nc3c(cc(C(=O)NCc4ccccc4)c(=N)n3Cc3ccco3)c(=O)n2c1	-1.1
O=C(O)CN1C(=O)c2cccc(Oc3ccc(Cl)cc3)c2C1=O	-0.1
CCOC(=O)c1cc2c(=O)n3ccccc3nc2n(C(C)C)c1=NC(=O)c1ccc(OC)c(OC)c1	-0.37
O=C1CCCC2=C1C(c1ccc(Br)cc1)C1=C(N2)c2ccccc2C1=O (stereo not drawn)	-0.31
Cc1ccn2c(Nc3ccccc3)c(-c3ccc(C)o3)nc2c1	-0.24
O=C(Nc1cccc(F)c1)c1cc(S(=O)(=O)N2CCN(c3ccccn3)CC2)ccc1F	-0.36
CCOC(=O)C(NC(=O)c1ccc(OC)cc1)(Nc1cccc(C(F)(F)F)c1)C(F)(F)F (stereo not drawn)	1
COc1ccc(-c2nc3ccccc3n2Cc2ccccc2)cc1OC	0.26
CCOc1ccc(S(=O)(=O)N(CC(=O)Nc2ccc(C)c(Cl)c2)c2ccccc2)cc1	0.85
COc1ccc(C(=O)N2CCN=C2SC)c(OC)c1	1.5
O=C1c2ccccc2C(=O)N1CSc1n[nH]c(-c2ccccc2)n1	-0.4
Cc1cc(Br)ccc1NC(=O)CN1C(=O)C2C3C=CC(C3)C2C1=O (stereo not drawn)	1.3
CCCC(C)(c1ccc(C)cc1O)c1ccc(C)cc1O	-0.05
Cc1cc(O)c(C=Nc2ccc(O)c(-c3nc4ccccc4o3)c2)c(C)c1Cl	0.98
COC(=O)C1C(=O)C2=C(CC1C)NC(C)=C(C(=O)OC(C)C)C2c1cccc(OC)c1OC (stereo not drawn)	-0.27
COC(=O)CSc1nc2c(c(-c3ccc(C)o3)c1C#N)CCCC2	0.77
Cc1ccc(CSc2nc3ccsc3c(=O)n2Cc2ccc3c(c2)OCO3)cc1	-0.66
N#CC1(c2ccccc2)CCc2c(sc3ncnc(Cl)c23)C1 (stereo not drawn)	-0.3
CCCN(C(=O)c1cc2cc3ccc(OC)cc3nc2o1)c1ccc(F)cc1	-1.4
O=C(Nc1ccc(Cl)cc1)c1cc(S(=O)(=O)NCc2ccccc2)ccc1F	-0.78
O=C1C2Sc3[nH]c(=O)sc3C(C=Cc3ccccc3)C2C(=O)N1c1ccc(Br)cc1 (stereo not drawn)	6.3

New compounds follow.
SMILES	Measles inh
c1nc(Sc2ccc3c(c2)OCCO3)c2c3c(sc2n1)CCCC3	0.01
COCCn1c(=O)[nH]c2cc(C(=O)N3CCC(C(N)=O)CC3)ccc2c1=O	0.48
CC1=C(C(=O)Nc2ccccn2)C(c2cccnc2)C2=C(CCCC2=O)N1 (stereo not drawn)	0.49
CC(=O)c1ccc(N2CCN(C(=O)CCCCCn3c(=S)[nH]c4ccc(Br)cc4c3=O)CC2)cc1	-0.87
O=C(O)C1NC(c2cc(Cl)ccc2O)C2C(=O)N(c3ccccc3)C(=O)C12 (stereo not drawn)	0.14
C=CCN1C(=O)C(O)(CC(=O)c2ccc(OC)c([N+](=O)[O-])c2)c2ccccc21 (stereo not drawn)	2.3
Clc1ccc2nc(CSc3nncn3-c3ccccc3)c(Br)n2c1	-0.69
Cc1ccc(OCC(O)CN2CCn3c4c(c5cc(C)ccc53)CCCC42)cc1 (stereo not drawn)	1.3
CCOc1ccc(C2C(C(=O)OCC(C)C)=C(C)N=C3SC(CC)C(=O)N32)cc1 (stereo not drawn)	-0.94
CC(=O)Oc1ccc(-c2ccc(C=Nc3ccc(S(=O)(=O)Nc4nccs4)cc3)cc2)cc1	-1.1

The last 3 entries of the part above are carried over, then new ones follow.
SMILES	Measles inh
Cc1ccc(OCC(O)CN2CCn3c4c(c5cc(C)ccc53)CCCC42)cc1 (stereo not drawn)	1.3
CCOc1ccc(C2C(C(=O)OCC(C)C)=C(C)N=C3SC(CC)C(=O)N32)cc1 (stereo not drawn)	-0.94
CC(=O)Oc1ccc(-c2ccc(C=Nc3ccc(S(=O)(=O)Nc4nccs4)cc3)cc2)cc1	-1.1
CCOC(=O)C1=NNC(C(=O)c2ccc(Cl)cc2)C1c1ccc(OC)cc1 (stereo not drawn)	-0.85
CCc1ccc(-n2c(=O)c3c4c(sc3n(Cc3cc(=O)n5ccccc5n3)c2=O)CCCC4)cc1	-0.48
CCn1cc(CNC(=O)c2cc(-c3ccccc3)nc3ccc(Br)cc23)cn1	-1.3
Cc1csc(NC(=O)CSc2nc(-c3ccc(Br)cc3)cc(-c3ccccc3)c2C#N)n1	-0.12
CCOCCn1c(SCC(N)=O)nc2c1c(=O)[nH]c(=O)n2C	-0.12
CC(=O)c1ccc2c(c1)C1C=CCC1C(c1ccc([N+](=O)[O-])cc1)N2 (stereo not drawn)	-0.82
COc1ccc(C(=O)Nc2ccc(Oc3ccc(C)c(C)c3)cc2)cc1OC	-0.03
CCS(=O)(=O)Nc1cccc(C2=NN(S(C)(=O)=O)C(c3ccc(C)cc3)C2)c1 (stereo not drawn)	-1.2
Cc1ccc(S(=O)(=O)n2cnc3ccccc32)c(C)c1	0.6
CC(=O)c1ccc(N2C(=O)c3cccc([N+](=O)[O-])c3C2=O)cc1	1.1
COc1ccc(-n2c(=S)[nH]c3cc(C(=O)NCc4cccnc4)ccc3c2=O)cc1OC	0.14
CCCCN(C)C(=O)C1CC(=O)N(c2ccc(OC)cc2)C1c1ccc(OC)cc1 (stereo not drawn)	0.97
O=C(CSc1nnc(-c2cccnc2)o1)Nc1ccc(Br)cc1	-1.4
O=C(Nc1ccc(Br)cc1)c1ccc(Cl)c(S(=O)(=O)N2CCCCCC2)c1	-0.34
Cc1ccc(C(=O)N2CCN(S(=O)(=O)c3ccccc3)CC2)cc1	0.48
O=C(Oc1ccc(Cl)cc1)c1ccc2nsnc2c1	-0.41
COC(=O)COC(=O)c1ccc(Oc2nc(N(C)C)nc(N(C)C)n2)cc1	0.38
CCSCCOC(=O)C1=C(C)NC2=C(C(=O)CC(C)(C)C2)C1c1ccc(OC)c(Br)c1 (stereo not drawn)	0.12
CN(Cc1ccccc1)S(=O)(=O)c1ccc(Cl)s1	-1.3
Cc1cc(C)c(NC(=O)c2cc(S(=O)(=O)NC3CCCCC3C)ccc2F)c(C)c1 (stereo not drawn)	-0.12
O=C(CSc1nc2ccccc2s1)Nc1ccccc1F	1.1
O=C(Cn1c(=O)n(Cc2ccccc2)c(=O)c2ccccc21)NC1CCCCC1	-1.8
O=C(C1=NNC2C(=O)N(c3ccccc3)C(=O)C12)c1nc(Cl)ccc1Cl (stereo not drawn)	-0.46
O=C(Nc1cccc(NCc2cc(Cc3ccccc3)cc([N+](=O)[O-])c2O)c1)c1ccc(F)cc1	-0.85
COc1cccc2sc(=NC(=O)CC34CC5CC(CC(C5)C3)C4)n(C)c12	-0.02
Cc1ccc(Cn2c(=O)cc(C(=O)NCCC3=CCCCC3)c3ccccc32)cc1	-0.72
O=C(c1ccc(Cl)cc1)c1conc1C(=O)c1ccc([N+](=O)[O-])cc1	-0.04
COc1cccc(NC(=O)CCN2CCCCCC2)c1	3
COc1ccc(C(=O)NC(NCCC23CC4CC(CC(C4)C2)C3)(C(F)(F)F)C(F)(F)F)cc1	1.1
C=CCn1c(=N)n(CCO)c2ccccc21	0.78
O=C1C2ON(c3ccc(Cl)cc3)C(c3cc(Br)ccc3O)C2C(=O)N1c1ccccc1 (stereo not drawn)	-0.62
O=C(Nc1ccc(OC(F)(F)F)cc1)c1ccc(N2CC3CC(C2)c2cccc(=O)n2C3)c(NC(=O)c2cccs2)c1 (stereo not drawn)	-0.12
c1ccc(-c2cn3c(n2)SCC3)cc1	1.3
C=C(C)Cn1c(NCCCO)nc2c1c(=O)[nH]c(=O)n2C	-0.13
COc1ccc(C2C=C(c3ccc(Br)cc3)Nc3nc(CCCO)nn32)c(OC)c1 (stereo not drawn)	-0.19
COc1ccc(-c2cc(=O)oc3cc(OC(C(=O)O)c4ccccc4)ccc23)cc1 (stereo not drawn)	-0.67
COc1ccc(CCNC(=O)C2CCCN(S(=O)(=O)N3CC(C)CC(C)C3)C2)cc1OC (stereo not drawn)	0.66
CCCn1c(=N)c(C(N)=O)cc2c(=O)n3ccccc3nc21	0.67
COc1cccc(C2C(C(=O)Nc3ccc(C)cc3C)=C(C)Nc3nc4ccccc4n32)c1OC (stereo not drawn)	1.3
Nc1ccc2nc(SCC(=O)N3CCOCC3)sc2c1	1.2
O=C(c1cnn2c(C(F)(F)F)cc(-c3ccc4c(c3)OCO4)nc12)N1CCOCC1	-0.26
O=C(Nc1c2c(nn1-c1ccc(F)cc1)CSC2)c1ccccc1I	0.24
N#Cc1c(C(F)(F)F)cc(-c2ccc(F)cc2)nc1SCC(=O)Nc1ccccc1	0.36
COc1ccc(CCNC(=O)c2ccc(CN3CCc4ccccc4C3)cc2)cc1OC	1.3
CCOC(=O)c1[nH]c(Cc2[nH]c(C(=O)OCC)c(C)c2C)c(C)c1C	-0.15
O=C(Nc1cc(Cl)ccc1O)c1cc2nc(-c3ccc4c(c3)OCO4)cc(C(F)(F)F)n2n1	-0.34
CC(C)CC(=O)N1CCN(Cc2ccccc2Br)CC1	0.09
O=C(Nc1ccccc1C(=O)O)c1ccc(Br)o1	-0.28
Cc1nc2c(C(=O)NCc3ccc(F)cc3)cnn2c(C)c1Cc1ccccc1F	0.08
COCCCNC(=O)Cn1ccc2ccccc2c1=O	-0.14

Sorted by value in Measles inh (lowest first): some entries from above.
| SMILES | Measles inh |
| --- | --- |
| O=C(c1cnn2c(C(F)(F)F)cc(-c3ccc4c(c3)OCO4)nc12)N1CCOCC1 | -0.26 |
| COCCCNC(=O)Cn1ccc2ccccc2c1=O | -0.14 |
| Cc1nc2c(C(=O)NCc3ccc(F)cc3)cnn2c(C)c1Cc1ccccc1F | 0.08 |
| COc1ccc(CCNC(=O)c2ccc(CN3CCc4ccccc4C3)cc2)cc1OC | 1.3 |

Next part:
SMILES	Measles inh
Cc1nc(C)c(C(=O)Nc2ccccc2C)s1	0.01
CC1=CC=CN2C1=NC(C(F)(F)F)(C(F)(F)F)N=C2c1ccco1	-0.04
Cn1c(=O)c2c(nc3n(Cc4ccco4)c(-c4ccccc4)cn23)n(C)c1=O	0.3
O=C(NCc1ccc(F)cc1)c1cc(-c2ccc3c(c2)OCO3)on1	-0.98
CCC1Oc2ccccc2N(CC(=O)NC2CCCCC2C)C1=O (stereo not drawn)	1.2
Cc1nc2cc(Nc3nnc(-c4ccccc4)c4ccccc34)ccc2n1C	-0.68
Cn1c(=O)c2c(nc(Oc3ccc4c(c3)OCO4)n2Cc2ccc(Br)cc2)n(C)c1=O	-0.44

Source: PubChem BioAssay (Emory University Molecular Libraries Screening Center)
